Bead autofluor – counter-screen for toxin protease inhibitors: compound fluorescence; actives 3.1% (n = 360,000); fluorescence intensity (no concentration beside the values); compound autofluorescence counterscreen, microsphere flow cytometry; active compounds read high; AID 624483;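 active = at least 3 SD above the mean of all compounds, about 16000 in these data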;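 also: 100 nL of 1 mM stock went into each well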
The depositor's hits bear a star. Some of the compounds tested (hit frequency here may not be typical).

SMILES	Bead autofluor
C[C@H]1CN([C@@H](C)CO)C(=O)CCCn2cc(nn2)CO[C@@H]1CN(C)S(=O)(=O)c1ccc(Oc2ccccc2)cc1	3041
CC1(C(=O)NS(=O)(=O)c2cccc(F)c2)CCN1C(=O)Cc1ccc(Cl)cc1Cl (configuration not stated)	3752
O=C(c1cccs1)N1C[C@H](n2cc(C3CC3)nn2)[C@@H](O)C[C@@H]1c1ccc(Cl)cc1	2938
CCCCCCN1C[C@H](n2cc(-c3ccc(F)cc3)nn2)[C@@H](O)C[C@@H]1c1ccccc1	3871
COc1ccc(-c2csc(C(O)c3ccc(F)c(F)c3)n2)cn1 (configuration not stated)	4025
Cc1ccc(NC(=O)c2ccc3c(c2)CCN3S(C)(=O)=O)cc1	3423
COc1ccc(-c2ccc(CN3C(CC(C)C)C(=O)N(Cc4cn(CCC5OCCO5)nn4)CCS3(=O)=O)cc2)cc1OC (configuration not stated)	3566
O=C(COC(=O)c1ccccc1)NCC1COc2ccccc2O1 (configuration not stated)	3949
O[C@H]1C[C@H](c2ccc(Cl)cc2)N(Cc2cccs2)C[C@@H]1n1cc(-c2ccc(F)cc2)nn1	3957
CC1(C(=O)Nc2cnc3ccccc3c2)CCN1Cc1ccc2ccccc2c1 (configuration not stated)	3895
O=C(C[C@H]1C[C@@H]2c3cc(NS(=O)(=O)c4ccccc4)ccc3O[C@@H]2[C@H](CO)O1)N1CCOCC1	3452
CC(=O)Nc1ccc(-c2noc(-c3csc([C@@H]4C[C@H](O)[C@@H](CO)O4)n3)n2)cc1	3897
Cc1ccc(Cc2c(-c3ccccc3)nc3c(C)cc(Br)cn23)cc1	5028
NC(=O)c1cccc(Nc2nc(C(N)COCc3ccccc3)cs2)n1 (configuration not stated)	2971
O=C(Cn1sc2ccccc2c1=O)Nc1ccc(Cl)cc1	4019
Cc1cnc(C(=O)OCC(=O)c2cc(C)n(CCc3ccc(F)cc3)c2C)cn1	3205
CN(C)CCN1CCN(C2CN(Cc3cn(Cc4ccccc4C(F)(F)F)nn3)S(=O)(=O)C2)CC1 (configuration not stated)	5723
CNc1ccc2ncc(-c3ccccc3C(C)=O)n2n1	2929
O=C1OCCOC2CCCc3oc(-c4ccccc4)c1c32 (configuration not stated)	5740
COc1ccc(S(=O)(=O)N(C)C[C@@H]2OCc3cnnn3CCCC(=O)N([C@@H](C)CO)C[C@@H]2C)cc1	2981

Next part; it opens with the 5 that closed the last part.
SMILES	Bead autofluor
Cc1cnc(C(=O)OCC(=O)c2cc(C)n(CCc3ccc(F)cc3)c2C)cn1	3205
CN(C)CCN1CCN(C2CN(Cc3cn(Cc4ccccc4C(F)(F)F)nn3)S(=O)(=O)C2)CC1 (configuration not stated)	5723
CNc1ccc2ncc(-c3ccccc3C(C)=O)n2n1	2929
O=C1OCCOC2CCCc3oc(-c4ccccc4)c1c32 (configuration not stated)	5740
COc1ccc(S(=O)(=O)N(C)C[C@@H]2OCc3cnnn3CCCC(=O)N([C@@H](C)CO)C[C@@H]2C)cc1	2981
COc1ccc(Cl)cc1Cn1c(C)c(C(=O)NCc2cccc([N+](=O)[O-])c2)sc1=O	5850
O=C(NCCO)/C(=C\c1cccc([N+](=O)[O-])c1)NC(=O)c1cccs1	3739
O=S1(=O)CC(N2CCC(Cc3ccccc3)CC2)CN1C1CCCCC1 (configuration not stated)	5783
CCCCN1CCCCC1(C)C(=O)NCc1cccc(OC)c1 (configuration not stated)	4410
O=C(Nc1ccc(C(=O)O)cc1)Oc1ccc(N(CCCl)CCCl)cc1	6001
CC(C)n1c(=O)c2ccccc2n1Cc1cn(-c2ccc(Cl)cc2)nn1	5709
Cc1ccc2c(c1)Oc1ccccc1N=C2	3025
COc1ccc2nc(C)cc(Nc3ccccc3OC)c2c1	4066
COc1ccc(Br)c(C(=O)N2CCCC2(C)C(=O)NCC(C)C)c1 (configuration not stated)	2994
O=C(NCc1ccc(F)cc1F)[C@@H]1CCCN1C(=O)[C@@H]1CCCN1	4230
COc1cc2nn(-c3ccccc3N)nc2cc1OC	3817
COc1ccc(S(=O)(=O)NC(=O)C2(C)CCN2C(=O)CC2CC2)cc1 (configuration not stated)	3674
CCOc1ccccc1-c1cnc(NC)cn1	2954
O=C1OCC/C1=C\NCCCN/C=C1\CCOC1=O	3128
NC(=O)c1[nH]cnc1N=NN(CCO)Cc1ccccc1	2901
CC1(Cc2ccccc2OC(F)(F)F)C(=O)Nc2c(Cl)ccc(Cl)c21 (configuration not stated)	3495
C[C@@H]1CN([C@@H](C)CO)C(=O)c2cc(Br)cnc2O[C@H]1CN(C)C(=O)CCN1CCCCC1	3588
CS(=O)(=O)c1ccc(Nc2nc(C(N)CCc3ccccc3)cs2)cc1 (configuration not stated)	3631
Cc1ccc(-n2sc3cc(F)ccc3c2=O)c(C)c1	3664
O=C(Nc1ccc2c(c1)OCCO2)C(c1ccnc2ccccc12)N1CCN(C/C=C/c2ccccc2)CC1 (configuration not stated)	6254
CS(=O)(=O)Nc1cccc(-c2cc(NC=O)c3ncc(-c4ccc(F)cc4)n3c2)c1	2968
CCC(C)NC(=O)c1ccc(N2CC3CC(C2)c2cccc(=O)n2C3)c(NC(=O)c2c(F)cccc2F)c1 (configuration not stated)	3728
O=C(NCc1cccs1)c1cccc2c(-c3cccnc3)coc12	3820
CCC(c1nnnn1-c1ccc(OC)cc1)N1CCN(C/C=C/c2ccccc2)CC1 (configuration not stated)	6014
COc1cccc(-c2cnc3c(NC=O)cc(-c4cccc(NC(C)=O)c4)cn23)c1	4374
O=C(CCc1ccccc1)N1Cc2cc(N3CCCCC3)ccc2-n2nncc2C1	13566
C[C@@H]1CN([C@@H](C)CO)S(=O)(=O)c2ccc(Br)cc2O[C@H]1CN(C)C(=O)Cc1cccnc1	3651
CC1(C)CC(=O)C(CC(=O)c2ccccc2)=C(NN=C(N)N)C1	3810
CSCC[C@H](CO)NC(=O)[C@H]1O[C@@H](n2cnc3c(N)ncnc32)[C@H](O)[C@@H]1O	5330
c1cc(-c2ccc(CN3CCOCC3)cc2)n2ccnc2c1	3730
CCCOc1ccc(F)cc1-c1cc(C(=O)Nc2ccc(F)cc2)[nH]n1	3517
Cc1ccccc1NS(=O)(=O)c1ccc(S(=O)(=O)N2CCCC2)cc1	3065
Cc1ccc(F)cc1C(=O)N1CCOCC1c1cc(C(=O)Nc2ccccc2)no1 (configuration not stated)	3975
CC(O)(c1cccc(F)c1)c1nc(-c2cnc3ccccc3c2)cs1 (configuration not stated)	3678
CCc1cc(-c2nnn(CCC3COCCO3)c2CC)cc(CC)c1-c1cn(Cc2ccccc2)nn1 (configuration not stated)	3692
CNC(=O)C[C@H]1C(=O)N(Cc2ccccc2)C[C@@H]1C	2758
CC(=O)Nc1cccc(Nc2cc(C)nn2C)c1	6113
CCOC(=O)C1=CCN(S(=O)(=O)c2ccccc2Br)C1c1cccc(Cl)c1 (configuration not stated)	5780
Cc1ccc([C@@H]2CC(=O)[C@@H]3CN(S(=O)(=O)c4ccc(C)cc4)[C@H](c4ccccc4)C[C@@H]3N2S(=O)(=O)c2ccc(Cl)cc2)cc1	4691
Cc1ccccc1-n1nc2c(c1NC(=O)C1CC1)CS(=O)(=O)C2	3501
Clc1ccc(N2O[C@H]3C=C[C@@H]2C3)nc1	5431
CSC1=NC=C(C#N)C2=NC(c3ccc(Cl)cc3)NN12 (configuration not stated)	4526
CN(CC(=O)N/N=C/c1ccc(F)cc1)S(=O)(=O)c1ccccc1	3665
CCc1nc2c(OCc3ccc(F)cc3)cccn2c1N(C)C(=O)CC(C)C	3158
COc1ccc([C@H]2C[C@H](O)[C@@H](n3cc(COC(=O)c4ccccc4)nn3)CN2Cc2cccs2)cc1	3596
O[C@@H]1CN(Cc2cccs2)[C@@H](c2ccc(Cl)cc2)C[C@H]1n1cc(C2CC2)nn1	3643
COc1ccc(-n2c(SCC(=O)Nc3cc(C)on3)nc3c(c2=O)SC(C)C3)cc1 (configuration not stated)	2911
O=C1c2ccccc2C(c2nnnn2-c2ccc3c(c2)OCCO3)N1Cc1ccc(F)cc1 (configuration not stated)	5886
CC(=NNC(N)=O)C1CC2CCC1CC2 (configuration not stated)	2857
C[C@H](CO)N1C[C@H](C)[C@H](CN(C)C(=O)Nc2cccc(Oc3ccccn3)c2)OCc2cnnn2CCCC1=O	3496
Cc1cn([C@H]2C[C@H](O)[C@@H](/C=C/C(=O)NCCCc3ccccc3)O2)c(=O)[nH]c1=O	4326
Cc1c(C(=O)NCc2cccc([N+](=O)[O-])c2)sc(=O)n1Cc1ccc(C(C)C)cc1	4128
CCCCN(C(=O)c1ccccc1Br)C(c1ccc(OC)cc1)c1nc2ccccc2[nH]1 (configuration not stated)	5521
C[C@@H]1CN([C@@H](C)CO)C(=O)CCCn2nncc2CO[C@H]1CN(C)C(=O)Nc1ccccc1F	3794
CCc1nc2ccc(C(=O)N(C)CCCN(C)C)cn2c1N(C=O)CCC(C)C	3475
CCN(CC1CCCO1)C(=O)CCc1nnc(CCc2ccccc2)o1 (configuration not stated)	3753
C[C@@H]1CN([C@@H](C)CO)C(=O)CCCn2nncc2CO[C@H]1CN(C)S(=O)(=O)c1ccc(C#N)cc1	3109
Cn1c(NCc2cccnc2)nc2cc(-c3cccc(C(=O)NCCO)c3)sc2c1=O	3770
COc1ccccc1CN1C(=O)C(Cc2ccccc2)ON=C1c1ncccc1C (configuration not stated)	5419
COC(=O)[C@]12CCCCC=C1N(Cc1cccc3ccccc13)C(=O)[C@H](CC(=O)NCCc1ccccc1OC)C2	4088

Of the compounds above, four contain an NH in an aromatic ring:
SMILES	Bead autofluor
NC(=O)c1[nH]cnc1N=NN(CCO)Cc1ccccc1	2901
CCCOc1ccc(F)cc1-c1cc(C(=O)Nc2ccc(F)cc2)[nH]n1	3517
Cc1cn([C@H]2C[C@H](O)[C@@H](/C=C/C(=O)NCCCc3ccccc3)O2)c(=O)[nH]c1=O	4326
CCCCN(C(=O)c1ccccc1Br)C(c1ccc(OC)cc1)c1nc2ccccc2[nH]1 (configuration not stated)	5521

Next part.
SMILES	Bead autofluor
COc1c(C)cc(C(O)c2ncc(-c3ccc(Cl)cc3)[nH]2)cc1C (configuration not stated)	3418
CC1(C(=O)NS(=O)(=O)C2CC2)CCCN(C(=O)c2ccc(C(F)(F)F)cc2)C1 (configuration not stated)	3596
C[C@H]1CN([C@@H](C)CO)C(=O)CCCn2nncc2CO[C@@H]1CN(C)Cc1ccc2c(c1)OCCO2	4012
Cc1ccc(-c2ccc(CN3C(CC(C)C)C(=O)N(Cc4cn(CCC5OCCO5)nn4)CCS3(=O)=O)cc2)cc1 (configuration not stated)	3720
CCOC(=O)[C@]12CCC=C1N(Cc1ccc3c(c1)OCO3)C(=O)[C@H](CC(=O)NCc1cccc(C(F)(F)F)c1)C2	5520
C[C@H](NC(=O)c1ncn2c1C(=O)NC[C@H]2C)c1ccccc1	3617
COc1ccc(NC(=O)C[C@H]2C(=O)N(c3ccc(Br)cc3)C[C@@H]2CSC)cc1	3574
Cc1cc(NS(C)(=O)=O)c(=O)n(Cc2cccc(C(F)(F)F)c2)c1	3714
CC1(Cc2ccccc2OC(F)(F)F)C(=O)Nc2ccc(-c3ccsc3)cc21 (configuration not stated)	4241
COc1ccc(C(C)(NC(C)=O)c2nc(-c3cnc4ccccc4c3)cs2)cc1 (configuration not stated)	3429
CN1CCN(c2ccc(CNC(=O)C3(C)Cc4c(-c5ccc6c(c5)OCO6)ccnc4O3)cc2)CC1 (configuration not stated)	3889
CC(C)(C)OC(=O)[C@H](Cc1ccccc1)NC(=O)c1[nH]cnc1C(=O)Nc1ccccc1F	3719
Cn1nc(-c2ccccc2)cc1NC(=O)[C@@H]1O[C@H](CO)[C@H](O)[C@H](O)[C@H]1O	3420
Cc1ccccc1-c1csc(C(C)(O)c2cccnc2)n1 (configuration not stated)	3842
COc1ccc(-c2csc(C(C)(O)c3cccnc3)n2)cn1 (configuration not stated)	3969
CN(C)c1ccc(-c2ccnc3c2CC(C)(C(=O)NCCc2ccccc2)O3)cc1 (configuration not stated)	3591
COC(=O)C[C@@H]1C[C@H]2c3cc(N(C)C)ccc3O[C@H]2[C@H](CO)O1	3682
O=c1[nH]c(=S)n2c(c1-c1ccccc1)OC(CBr)C2 (configuration not stated)	3531
Cc1ccccc1CN1CCN(C(=O)[C@H]2O[C@@H](n3cnc4c(N)ncnc43)[C@H](O)[C@@H]2O)CC1	4691
Cc1cccc(NC(=O)c2ncn3c2C(=O)N[C@@H](C)C3)c1	3557
COCCN1C(=O)COc2ccccc2C1C(=O)Nc1c(C)cccc1C (configuration not stated)	5455
COc1ccc([C@H]2C[C@@H](n3cc(C4CC4)nn3)[C@H](O)CN2Cc2cccs2)cc1	3729
Cn1cc(-c2ccc(C(=O)Nc3cccc(Oc4ccccc4)c3)c3occc23)cn1	3705
C[C@@H]1CN([C@H](C)CO)C(=O)CCCn2cc(nn2)CO[C@H]1CN(C)C(=O)Nc1ccc(C(C)(C)C)cc1	4430
CCOC1=C2[C@@H](CN(S(=O)(=O)c3ccc(C)cc3)[C@H]2c2cccc3ccccc23)[C@H]2C(=O)N(Cc3ccccc3)C(=O)[C@H]2C1	4267
Cc1ccc(S(=O)(=O)N2C[C@H]3C(=O)C[C@@H](c4ccccc4)N(S(=O)(=O)c4ccc(Br)cc4)[C@H]3C[C@H]2c2ccccc2)cc1	6343
Cc1ccc(S(=O)(=O)NNc2c3ccccc3nc3ccc(Cl)cc23)cc1	3268
COc1cccc(OCc2ccc(Cn3nc(NC(=O)NCCc4ccc(OC)c(OC)c4)c4ccccc43)cc2)c1	3747
Cc1cn([C@H]2C[C@H](O)[C@@H](CNCc3ccc(Oc4cc(-n5cccn5)ncn4)cc3)O2)c(=O)[nH]c1=O	3469
C[C@H](CO)N1C[C@H](C)[C@H](CN(C)S(=O)(=O)c2ccc3ccccc3c2)OCc2cnnn2CCCC1=O	3801
